Source: PubChem
HPGD block: qHTS Assay for Inhibitors of HPGD (15-Hydroxyprostaglandin Dehydrogenase). 15-hydroxyprostaglandin dehydrogenase [NAD(+)] (Homo sapiens), P15428. purified HPGD, NADH fluorescence kinetic, PGE2 substrate. Potency, µM, for inactives: top-dose activity change, negative = inhibition, actives largely listed as inhibitors. actives 4.3% (n = 150,000). AID 894, 2007; active = well fitted inhibition curve with a large enough effect (not every such curve was filed as active); inconclusive = small, poorly fitted or top-dose-only effect, or another doubt; inactive = no such curve, though single readings can be large or run the other way;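 further: top concentration of the series not given in the record; plate controls included wells without enzyme; inactives centre near -10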
Target sequence (P15428 whole entry, looked up): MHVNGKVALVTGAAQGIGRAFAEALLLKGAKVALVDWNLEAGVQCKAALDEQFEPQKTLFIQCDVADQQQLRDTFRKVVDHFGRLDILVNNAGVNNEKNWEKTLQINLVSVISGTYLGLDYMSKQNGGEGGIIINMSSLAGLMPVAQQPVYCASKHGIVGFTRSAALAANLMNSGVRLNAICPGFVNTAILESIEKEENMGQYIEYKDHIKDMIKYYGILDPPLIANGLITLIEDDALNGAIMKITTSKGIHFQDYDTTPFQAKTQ
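20 nM HPGD preincubated 15 min at room temperature with compound in 50 mM Tris-HCl pH 8, 0.01% Tween 20. Started with 1 mM NAD+ and 30 uM prostaglandin E2; NADH fluorescence (360/450 nm) read 5 times over 30-s intervals, last minus first.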
* hit, by the source's call. On the % scale 0 is the no-effect control and ±100 the full control effect; potency means the concentration at half of the fitted maximal effect. Only part of the results is shown. The share of hits here may be higher or lower than overall.

For CC1(C)Cc2c(oc3ncn4ncnc4c23)CO1 the results were HPGD block -1%.
For CCCC/C(=N\NC(=O)c1ccc(Br)o1)c1ccccc1 the results were HPGD block -3%.
Cc1cc(NCCCO)n2c(nc3ccccc32)c1C#N was read as HPGD block inconclusive.
For COc1cc(C(=O)N(C)c2nnc(-c3cccnc3)s2)cc(OC)c1OC the results were HPGD block 3%.
`Cc1c(NC(=O)C2CCCN2S(=O)(=O)c2ccc(Cl)cc2)c(=O)n(-c2ccccc2)n1C` (stereo not given) gave HPGD block -6%.
COC(=O)c1cccc(COC(=O)CNC(=O)c2ccco2)c1 was read as HPGD block -6%.
CN(C)/C=N/c1c(C(=O)NCc2ccccc2)nnn1Cc1ccccc1 was read as HPGD block -15%.
For Cc1cc(C(=O)Nc2sc(C)c(-c3ccc(F)cc3)c2C(N)=O)no1 the results were HPGD block inconclusive.
For Cc1c(C(=O)N/N=C/c2cccs2)nc2ccccn12 the results were HPGD block inconclusive.
O=C(Nc1ccc2oc(Cc3ccc(Cl)cc3)nc2c1)c1cccnc1 was read as HPGD block -22%.
CCc1c(C(=O)NC2CCCCC2)[nH]c(C)c1C(C)=O was read as HPGD block -11%.
Screening COc1cnc(-c2ccccc2)nc1Oc1cccc(C)c1 returned HPGD block -10%.

Structural class, those above with a carbonyl joined to an NH by a bond outside any ring (8)
For CCCC/C(=N\NC(=O)c1ccc(Br)o1)c1ccccc1 the results were HPGD block -3%.
`Cc1c(NC(=O)C2CCCN2S(=O)(=O)c2ccc(Cl)cc2)c(=O)n(-c2ccccc2)n1C` (stereo not given) gave HPGD block -6%.
COC(=O)c1cccc(COC(=O)CNC(=O)c2ccco2)c1 was read as HPGD block -6%.
CN(C)/C=N/c1c(C(=O)NCc2ccccc2)nnn1Cc1ccccc1 was read as HPGD block -15%.
For Cc1cc(C(=O)Nc2sc(C)c(-c3ccc(F)cc3)c2C(N)=O)no1 the results were HPGD block inconclusive.
For Cc1c(C(=O)N/N=C/c2cccs2)nc2ccccn12 the results were HPGD block inconclusive.
O=C(Nc1ccc2oc(Cc3ccc(Cl)cc3)nc2c1)c1cccnc1 was read as HPGD block -22%.
CCc1c(C(=O)NC2CCCCC2)[nH]c(C)c1C(C)=O was read as HPGD block -11%.

(continued)
COc1cccc(C(=O)NCCN2CCN(c3ccc(Cl)cc3)CC2)c1 was read as HPGD block -12%.
`O=C(c1ccc(Cl)c(S(=O)(=O)N2CCCC2)c1)N1CCN(c2ccccn2)CC1` gave HPGD block -3%.
`CC1CC(C)CN(S(=O)(=O)c2ccccc2[N+](=O)[O-])C1` (stereo not given) gave HPGD block -5%.
`COc1cc(-c2nc(-c3ccccc3)c(-c3cccs3)[nH]2)cc(OC)c1OC` gave HPGD block inconclusive.
For CNC(=O)C1=C(C)NC(=S)NC1c1cc2c(cc1OC)CCCC2 (stereo not given) the results were HPGD block -2%.
Screening C/C=C/c1ccc(OCCOc2cccc3cccnc23)c(OC)c1 returned HPGD block -20%.
`CCCCN(C)S(=O)(=O)c1ccc(C(=O)Nc2nnc(CSC)o2)cc1` gave HPGD block -14%.
Screening Cc1cc(C)c(C)c(OC(=O)c2sc(Cl)nc2C)c1 returned HPGD block -8%.
For CS(=O)(=O)n1nc(-c2ccccc2)nc1NCc1ccco1 the results were HPGD block inconclusive.
Screening O=C(Nc1ccc(F)c(F)c1)c1cccnc1 returned HPGD block -11%.
For CC(C)Cn1cc(C(=O)N2CCN(c3ccccn3)CC2)c2c3ccccc3n(C)c2c1=O the results were HPGD block inconclusive.
Screening COc1ccc(NC(=O)CCCCCN2C(=O)CCC2=O)cc1Cl returned HPGD block -24%.
`COc1ccc(NC(=O)c2ccc(OC(=S)N(C)c3ccc(OC)cc3)cc2)cc1` gave HPGD block -3%.
For Cc1cc(=O)oc2cc(O)cc(O)c12 the results were HPGD block inconclusive.
For COc1ccc(/C=C/c2nc(C)c(-c3ccccc3)c(=O)[nH]2)cc1OC the results were HPGD block -19%.
CCOC(=O)N1CCN(C(c2cccc(OC)c2)c2sc3nc(C)nn3c2O)CC1 (stereo not given) was read as HPGD block -8%.
`CCN1CCN(Cc2ccc(OCc3ccccc3)c(OC)c2)CC1` gave HPGD block -7%.
Cc1nn(C)c(C(=O)Nc2cccc(CN3CCOCC3)c2)c1Br was read as HPGD block -11%.
Screening CC(C)OP(=O)(OC(C)C)C1(O)C(=O)Nc2ccccc21 (stereo not given) returned HPGD block -2%.
`Cc1c(N/C=C/C(=O)c2ccc(Cl)cc2)c(=O)n(-c2ccccc2)n1C` gave HPGD block -22%.
Screening CCCn1c(SC2C(=O)CC(C)(C)CC2=O)nc2c1c(=O)n(C)c(=O)n2C returned HPGD block -5%.
For Cc1noc(C)c1C(=O)N1CCC2(CCCN(Cc3ccc(C#N)cc3)C2)CC1 the results were HPGD block -3%.
CS(=O)(=O)N(Cc1ccccc1)c1ccc(C(=O)NCCSCc2ccco2)cc1 was read as HPGD block -5%.
For CCOc1ccc(OCC)c(NC(=O)CCCN2C(=O)c3cccnc3C2=O)c1 the results were HPGD block -9%.
Screening CN1CCN(c2ccc(NC(=O)c3ccc4c(c3)[nH]c(=O)n4Cc3ccc(F)cc3)cc2)CC1 returned HPGD block inconclusive.
`CC(=O)OC[C@H]1O[C@H](C/C=N/O[C@@H](C)c2cn([C@H](CO)Cc3ccccc3)nn2)C=C[C@@H]1OC(C)=O` gave HPGD block -8%.
`C/C(=N\NC(=O)c1nc2ccccn2c1C)c1ccc2c(c1)OCO2` gave HPGD block -20%.
O=C(CCCn1c(SCC(=O)c2ccc(F)cc2)nc2ccccc2c1=O)NCc1ccccc1 was read as HPGD block -3%.
COc1cccc(C(=O)CSc2nnnn2C)c1 was read as HPGD block -5%.
Screening CCN(CC)S(=O)(=O)c1ccc(C)c(NC(=S)Nc2cccc(S(=O)(=O)N3CCCCCC3)c2)c1 returned HPGD block -19%.
C/C=C/c1ccc(OC(C)=O)c(OC)c1 was read as HPGD block -7%.
Cc1ccc2c(c1)-c1c(cnn1CC(=O)Nc1ccccc1N1CCN(C)CC1)CO2 was read as HPGD block -2%.
For COc1ccc(O)c(/C=N/NC(=O)c2ccc(OCc3cccc(Br)c3)cc2)c1 the results were HPGD block -19%.
For COc1ccc2[nH]c(C)c(CCN3C(=O)C4C5C=CC(C5)C4C3=O)c2c1 (stereo not given) the results were HPGD block 2%.
Screening COc1ccc(NS(=O)(=O)c2cc(NC(=O)CCSc3ccccc3)ccc2OC)cc1 returned HPGD block -13%.
For CCOc1ccc(C(=O)NC(=S)Nc2cc(C)ccn2)cc1[N+](=O)[O-] the results were HPGD block 0%.
Screening O=C(/C=C/c1ccco1)NC(=S)Nc1ccccc1N1CCOCC1 returned HPGD block -24%.
For CCOc1ccc(CN(Cc2ccco2)S(=O)(=O)c2ccc(-n3cnnn3)c(OC)c2)cc1 the results were HPGD block -29%.
Cc1noc(C)c1CN1C(=O)NC(Cc2ccccc2)(Cc2ccccc2)C1=O was read as HPGD block -2%.
COc1cc2c(cc1NC(=O)CSc1nnc(Cc3cccs3)n1C)oc1ccccc12 was read as HPGD block -17%.
For COC(=O)C(OC(=O)c1ccc(OC)cc1)C(=O)OC the results were HPGD block -8%.
NC(=O)c1cc[n+](CC2=C(C(=O)[O-])N3C(=O)[C@@H](NC(=O)Cc4cccs4)[C@@H]3SC2)cc1 was read as HPGD block -8%.
`COc1cccc(-c2nn(C)c3sc(C(=O)Nc4ccc5c(c4)OCCO5)cc23)c1` gave HPGD block inconclusive.
`O=C(Cn1cc2c(n1)CCCC2)NCc1cccc(Cl)c1` gave HPGD block -18%.
`COc1cccc(NC(=O)CNC(=O)c2ccc(F)cc2)c1` gave HPGD block -8%.
For CCNC(=O)CSc1nnc(-c2ccc(OC)cc2)n1CC(C)C the results were HPGD block 0%.
`COCCCn1c(SCC(=O)NC(C)C)nnc1-c1ccccc1` gave HPGD block -1%.
For Cc1ccc(-n2cnnn2)c2cccnc12 the results were HPGD block -2%.
`CC(=O)N=C1SC2CS(=O)(=O)CC2N1c1cccc(Cl)c1Cl` (stereo not given) gave HPGD block -3%.
For CCN(c1ccccc1)S(=O)(=O)c1ccc(N)c(OC)c1 the results were HPGD block -9%.
Screening Cc1cccc(-n2c(=O)cc(N3CCN(c4ccc(F)cc4)CC3)[nH]c2=O)c1 returned HPGD block -12%.
Screening CC(=O)OCc1nc2sc(C)c(C)c2c(=O)[nH]1 returned HPGD block -16%.
`COc1ccc2c(c1)CCc1c(C(=O)NCc3ccc(F)cc3)noc1-2` gave HPGD block 1%.
Screening c1ccc(-c2nnc3ccc(N4CCCC4)nn23)cc1 returned HPGD block -10%.
`N#CC1=C(N)SC(C(=O)c2ccccc2)C1c1cccs1` (stereo not given) gave HPGD block -7%.
Cc1nc(S/C(=C\c2ccc(OCc3ccccc3Cl)cc2)C(=O)O)n[nH]1 was read as HPGD block inconclusive.
`CCCOc1ccc(C(=O)NCc2ccco2)cc1` gave HPGD block inconclusive.
For CCCC(=O)Nc1ccc(C(=O)O)cc1NC(=O)CCC the results were HPGD block -10%.
Screening O=C(CSc1nc2ccccc2c(=O)n1CC1CCCCC1)N1CCOCC1 returned HPGD block -11%.
CCN1CCN(c2ccc(NC(=O)c3ccc4c(c3)OCO4)cc2)CC1 was read as HPGD block -12%.

Next section, overlapping the part above by 3 compounds.
For CCCC(=O)Nc1ccc(C(=O)O)cc1NC(=O)CCC the results were HPGD block -10%.
Screening O=C(CSc1nc2ccccc2c(=O)n1CC1CCCCC1)N1CCOCC1 returned HPGD block -11%.
CCN1CCN(c2ccc(NC(=O)c3ccc4c(c3)OCO4)cc2)CC1 was read as HPGD block -12%.
`O=C(Nc1nccs1)C1CCN(S(=O)(=O)c2ccc(Cl)c(C(F)(F)F)c2)CC1` gave HPGD block -24%.
For Cc1ccccc1-n1c(SC(C)C(=O)N2CCN(C)CC2)nc2ccccc2c1=O (stereo not given) the results were HPGD block 1%.
COCCOC(=O)C1=C(C)NC(=O)N(C(C)=O)C1c1ccc(Cl)cc1 (stereo not given) was read as HPGD block -10%.
For CN(c1ccccc1C(=O)N1CCN(c2cccc(Cl)c2)CC1)S(C)(=O)=O the results were HPGD block 2%.
For CCOC(=O)CSc1nnc(-c2cccs2)n1-c1ccccc1 the results were HPGD block 28µM*.
For CN(C(=O)c1ccccc1)C1(C)CCS(=O)(=O)C1 (stereo not given) the results were HPGD block -1%.
`COC(=O)[C@@]1(Cc2ccccc2)[C@H]2c3cc(C(=O)N(C)C)n(CCN4CNCC4=O)c3C[C@H]2CN1C(=O)c1ccccc1` gave HPGD block -1%.
Screening CCCC(=O)N1CCN(c2ccc(NC(=S)NC(=O)CC)cc2)CC1 returned HPGD block -9%.
Screening C=CCn1c(SCC(=O)C(C)(C)C)nnc1-c1ccccn1 returned HPGD block -21%.
Screening Cc1cccc(C(=O)N/N=C/c2ccc[nH]2)c1 returned HPGD block -5%.
`COCCNC(=O)c1noc2c1CCc1cc(OC)ccc1-2` gave HPGD block 25µM*.
COc1ccc(OC)c(/C=N/NC(=O)CCCC(=O)Nc2cccc(Br)c2)c1 was read as HPGD block inconclusive.
Screening Cc1cccc(CSC2=NCCN2C(=O)c2ccc(Br)o2)c1 returned HPGD block -29%.
`COc1cc(C=O)ccc1OS(=O)(=O)c1ccc(NC(C)=O)cc1` gave HPGD block -24%.
For CCCCN(C)C(=O)CS(=O)(=O)Cc1nc(-c2cccc(OC)c2)oc1C the results were HPGD block -12%.
Screening Cc1cccc(CSc2nc3c(c(-c4cccs4)c2C#N)CN(C)CC3)c1 returned HPGD block -5%.
For Cc1nn(-c2ccccc2)c(-c2ccccc2)c1C(=O)O the results were HPGD block -4%.
For C[N+]1(C)CCC(=C2c3ccccc3CC(=O)c3sccc32)CC1 the results were HPGD block inconclusive.
For Cn1cc(CC(=O)Nc2cccc(C#N)c2)c2ccccc21 the results were HPGD block -8%.
`CSc1ccccc1NC(=O)c1c(Br)cnn1C` gave HPGD block -13%.
O=C(CSCC(=O)OCC(=O)c1ccc(Br)cc1)Nc1cccc2ccccc12 was read as HPGD block -21%.
For S=C(NCc1ccc(Cl)cc1)Nc1ccc(Cl)cc1Cl the results were HPGD block -2%.
`Cc1ccccc1C1CC(c2ccc(Br)cc2)Nc2nc(N)nn21` (stereo not given) gave HPGD block -12%.
CC1CCCN(Cc2nc3c(c(=O)n(C)c(=O)n3C)n2Cc2c(F)cccc2Cl)C1 (stereo not given) was read as HPGD block -2%.
Screening N#CCCn1c(=O)c(-c2cc(F)cc(F)c2)nc2cnc(Oc3cccc(Cl)c3)nc21 returned HPGD block inconclusive.
For CC1CCCCN1C(=O)CSCC(=O)Nc1nc(-c2cccs2)cs1 (stereo not given) the results were HPGD block -17%.
Screening Cc1ccc(C(=O)NC2CC3CCCC(C2)N3C(=O)NC2CCCCC2)cc1 (stereo not given) returned HPGD block -10%.
`Cc1cc(C)cc(OCC(=O)Nc2nonc2NC(=O)COc2cc(C)cc(C)c2)c1` gave HPGD block -6%.
Screening COC(=O)c1ccc(CNCC(=O)Nc2ccc(C(=O)OC)cc2)cc1 returned HPGD block 28µM*.
For O=C1CC(N2CCCCCC2)C(=O)N1c1ccc2c(c1)OCO2 (stereo not given) the results were HPGD block -16%.
NS(=O)(=O)c1ccc(NC(=O)CSc2nc3ccccc3n2-c2ccccc2)cc1 was read as HPGD block 1%.
Screening Cc1ccc(C)c(NC(=O)c2ccc[n+](Cc3ccc([N+](=O)[O-])cc3)c2)c1 returned HPGD block -4%.
Screening N/C(Cc1ccc(Cl)cc1Cl)=N\OC(=O)Cc1cccs1 returned HPGD block -26%.
CCOc1cc(C(=O)N2CCCC2)cc(OCC)c1OCC was read as HPGD block 3%.
Screening CCCCCCCCCC[n+]1cccc(C(=O)N(CC)CC)c1 returned HPGD block -5%.
CC(C)c1nc(Cl)c(C#N)c2c1CSC(C)(C)C2 was read as HPGD block -7%.
